PINK1 expr mod: PINK1 expression modulation | PINK1 immunofluorescence, high-content cytometry, 24 h | Potency, µM (top dose mostly 76.6 µM), for the others: at the top dose activation (PINK1 increase), hits mostly activators | 410,000 tested, 0.2% active; active = well fitted activation curve with a large enough effect; inconclusive = small, poorly fitted or top-dose-only effect; inactive = flat fitted curve, though single readings scatter; cell line not stated here;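 further: potency means the concentration at half of the fitted maximal effect; % of control where 0% means no effect; nearly all actives have a fitted effect of over 65% in size; a mitochondrial uncoupler was the plate control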
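Cells are seeded, rested 12 hours, then given compound at five concentrations or DMSO for 24 hours. After fixation, blocking and antibody staining, PINK1 amount and mitochondrial localization are scored; CCCP serves as control.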
TRPML1 ag: activates the human TRPML1 channel | activation, % (concentration not given with the values) | TRPML1-expressing cells, Ca2+ dye fluorescence, FDSS; host cell line not named in the record; reference of the full effect not given here | 410,000 tested, 0.12% active; in the data active = activation above about 50%; inconclusive = about 30% to 50%; inactive = below about 30%; further: 0% is about no effect; the text of the record puts the active cut at 80%
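Tet-induced TRPML1-DL cells, 1,500 per well, cultured overnight, were loaded with a no-wash Ca2+ dye for 45–90 min. Calcium fluorescence was recorded on the FDSS for 110 s after compound addition, before the EC80 agonist (4 uM 54-4) was added.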
CtBP-E1A blk: blocks the CtBP interaction with E1A | AlphaScreen GST-E1A/His-CtBP binding, 1536-well; stronger effect = lower value; control for the full effect not named in the record | activity change, % (concentration not given with the values) | 340,000 tested, 0.49% active; in the data active means activity change below about -65%; inconclusive means about -30% to -65%; inactive means above about -30%; further: on the % scale 0 is the no-effect control and ±100 the full control effect
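AlphaScreen with 125 nM GST-E1A and 125 nM His-CtBP (5X stocks) in Tris pH 8.0, 300 mM NaCl, BSA, Tween 20, TCEP. Compounds preincubated 2 h at 37 deg C, then glutathione donor/nickel acceptor beads added for 1 h at 37 deg C in dark.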
D2 agonist: agonists of human D2 dopamine receptor (beta-arrestin) | activation, % (no concentration beside the values) | 360,000 tested, 0.084% active | DiscoveRx PathHunter D2 beta-arrestin, luminescence, 90 min; 100% = 57 uM dopamine signal | AID 624465 | P14416; in the data active = activation above about 40%; inconclusive = about 15% to 40%; inactive = below about 15%; further: compound concentration not given in the record; the text of the record calls up to 30% inactive
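DiscoveRx PathHunter D2 beta-arrestin cells (2,100/well) attached overnight, then compound-stimulated 90 min at 37 C in HBSS/10 mM HEPES/0.1% Tween-20 buffer; beta-galactosidase complementation read by luminescence after 1 h at ambient temperature. Dopamine 57 uM final (EC100) as control.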
D2 PAM: potentiates the human D2 dopamine receptor allosterically; P14416; potentiation, % (test concentration not listed); DiscoveRx D2 beta-arrestin cells, luminescence, 90 min; 100% = 57 uM dopamine signal; 360,000 tested, 0.23% active; active = potentiation of 50% or more; inconclusive = 30% to 50%; inactive = 30% or less;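 further: compound concentration not given in the record; tested on top of an EC20 dose of dopamine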
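D2 cells co-treated with compound plus 50 nM dopamine (EC20) for 90 min at 37 deg C to detect potentiation. Beta-arrestin recruitment was read as enzyme-fragment luminescence after 1 h at ambient temperature. Full response was set by 57 uM dopamine.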
Six1-Eya2 blk: inhibitors of human Six1/Eya2 interaction | Q15475+O00167 | AlphaScreen GST-Six1/His-Eya2 binding, biochemical; stronger effect = lower value; control for the full effect not named in the record | activity change, % (concentration not given with the values) | 360,000 tested, 0.56% active | AID 651725; in the data active = activity change below about -65%; inconclusive = about -30% to -65%; inactive = above about -30%; further: on the % scale 0 is the no-effect control and ±100 the full control effect
Target sequence (O00167 whole entry, looked up): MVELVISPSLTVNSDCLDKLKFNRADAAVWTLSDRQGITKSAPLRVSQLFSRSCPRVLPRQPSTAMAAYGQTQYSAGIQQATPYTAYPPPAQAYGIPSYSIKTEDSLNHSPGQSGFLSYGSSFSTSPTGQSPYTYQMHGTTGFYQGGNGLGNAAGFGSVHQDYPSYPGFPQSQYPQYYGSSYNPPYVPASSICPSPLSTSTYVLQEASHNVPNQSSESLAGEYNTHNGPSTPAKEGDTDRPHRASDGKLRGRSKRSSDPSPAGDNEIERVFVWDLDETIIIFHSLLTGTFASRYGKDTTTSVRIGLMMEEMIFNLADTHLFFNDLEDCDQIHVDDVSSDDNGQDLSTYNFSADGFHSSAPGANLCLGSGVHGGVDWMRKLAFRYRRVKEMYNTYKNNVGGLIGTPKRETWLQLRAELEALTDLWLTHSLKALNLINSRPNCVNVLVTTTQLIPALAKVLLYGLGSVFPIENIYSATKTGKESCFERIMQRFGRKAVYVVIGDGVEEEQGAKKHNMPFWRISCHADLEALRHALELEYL
Target sequence (Q15475 whole entry, looked up): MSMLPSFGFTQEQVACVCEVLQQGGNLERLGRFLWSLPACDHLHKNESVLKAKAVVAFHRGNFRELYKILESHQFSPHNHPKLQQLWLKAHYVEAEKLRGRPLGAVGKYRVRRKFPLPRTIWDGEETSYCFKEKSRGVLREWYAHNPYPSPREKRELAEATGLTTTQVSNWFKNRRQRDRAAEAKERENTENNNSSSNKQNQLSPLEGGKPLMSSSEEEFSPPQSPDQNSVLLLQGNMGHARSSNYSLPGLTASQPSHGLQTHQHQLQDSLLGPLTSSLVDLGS
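AlphaScreen luminescence read after one hour at 37 °C in darkness. Pin-transferred compounds met GST-Six1 and His-Eya2 protein (5X stock 250 nM/500 nM) plus glutathione donor and Ni-chelate acceptor beads (5X, 50 ug/mL).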
Active calls of the source: *; ? = inconclusive; . = not tested or not shown; [ ] = dose if it differs, or a comment.

molecule,D2 PAM,CtBP-E1A blk,D2 agonist,PINK1 expr mod,TRPML1 ag,Six1-Eya2 blk
COCCn1c(=O)[nH]c2cc(C(=O)N3CCN(c4ccccc4OC)CC3)ccc2c1=O,5,-6,1.8,-1.4%,0.7,-1
Cc1cc(C)nc(SCC(=O)Nc2nccs2)n1,-1,2,-1.4,-0.2%,-0.2,-1
COc1ccc(C(=O)/C=C/N(C)C)cc1,1,-3,-2.0,-0.1%,1.0,1
Cc1ccc(C(=O)C(C)OC(=O)c2n[nH]c(=O)c3ccccc23)cc1 (stereo unspecified),-23,-2,-4.2,-0.4%,2.8,-7
CCCc1ccc(C2C3=C(CC(C)(C)CC3=O)NC3=C2C(=O)c2ccccc23)cc1 (stereo unspecified),-21,?,-1.8,-0.7%[38.3 µM],2.4,?
Cn1cnnc1SCC(=O)c1ccc(O)c(O)c1,5,0,7.9,0.1%,-0.3,-1
CCOc1ccc(C(C)=O)cc1CSc1nnc(N)s1,4,7,-3.3,1.1%,-0.1,7
CN1C(=O)C2(C(C#N)=C(N)N(c3cc(Cl)cc(Cl)c3)C3=C2C(=O)CC(C)(C)C3)c2ccccc21 (stereo unspecified),15,-2,1.4,-0.3%,0.3,11
C=CCNC(=O)CN1CCC(NC(=O)c2ccco2)CC1,-4,-3,-5.9,2.5%,-0.5,-4
CC1CCCC(C)N1S(=O)(=O)c1ccc(NC(=O)CCN2C(=O)C3CC=CCC3C2=O)cc1 (stereo unspecified),-4,-4,-3.9,-0.4%,0.3,0
Cc1ccc(C(=O)COC(=O)C2CC3CCCC(C2)C3=O)cc1[N+](=O)[O-] (stereo unspecified),-10,2,-1.1,-2.5%,1.4,0
COc1ccc(-c2noc(CCc3ccccc3)n2)cc1,-3,27,1.4,3.2%,2.5,33
COCCOC(=O)c1sc2nc[nH]c(=O)c2c1C,-6,-14,-3.5,-3.6%,-0.3,-24
COC(=O)c1ccccc1NC(=O)CCS(=O)(=O)c1cc2c(cc1C)NC(=O)CO2,-1,-3,-4.8,0.6%,0.4,-3
Cc1c(CCC(=O)NCCCN2CCCC2=O)c(=O)oc2cc(O)ccc12,-18,7,-4.1,0.9%,.,2
COc1cc(NS(=O)(=O)c2ccc(NC(=O)/C=C/c3cccc([N+](=O)[O-])c3)cc2)ncn1,-7,-6,1.2,9.9%,2.1,-4
Cc1ccc(C2=NN(C(=O)CSc3nnnn3C)C(c3ccco3)C2)cc1 (stereo unspecified),-5,8,-2.6,0.6%,1.8,-1
CCOC(=O)N1CCC(NC(=O)CCc2nc(-c3ccc(C)cc3)no2)CC1,3,2,-2.2,2.0%,-0.1,-1
COc1cc(/C=C(\C#N)c2nc3ccccc3s2)cc([N+](=O)[O-])c1O,-9,-27,-4.0,-0.1%,0.6,?
CCOCCCNC(=O)C(NC(=O)c1cnccn1)c1ccc(OC)cc1 (stereo unspecified),-4,-1,-0.4,-0.8%,1.4,3
COc1cccc(-c2nc(N3CCN(c4ccccc4)CC3)c3ccccc3n2)c1O,1,-5,-0.6,2.8%,-0.4,9
O=C1NC2(CCCCC2)NN1c1ccccc1,21,0,9.6,3.6%,0.0,10
CCn1nnnc1SCC(=O)N1CCCc2ccccc21,-13,2,-1.7,-0.7%,1.1,11
CCC1(C)Cc2nc3[nH]c(=S)n(-c4ccccc4)c(=O)c3cc2CO1 (stereo unspecified),-6,1,-5.0,-0.5%,0.3,7
N#CCCn1cc(C(=O)N2CCOCC2)c(-c2ccc3c(c2)OCCO3)n1,-2,-14,-2.3,1.0%,0.6,4
Cc1cc(C)c(NC(=O)CN2C(=O)NC3(CCCCC3)C2=O)c(Cl)c1,-10,-1,0.0,-1.4%[38.3 µM],0.3,3
O=C(CN1CCOCC1)N/N=C/C=C/c1ccccc1,-2,-7,-6.1,2.3%,0.9,1
Cc1ccc(C)c2[nH]c(=O)c(CCNC(=O)CCc3ccccc3)cc12,-3,9,-1.8,-0.2%,-0.8,2
Cc1cc2oc(=O)cc(CSc3nnc(-c4cccs4)o3)c2cc1C(C)C,1,-24,-3.5,0.7%,0.9,-6
Cc1ccc2[nH]c(C)c(CC(=O)O)c2c1,-1,1,1.6,-0.6%[38.3 µM],0.4,-1
c1ccc(-c2csc(-n3cccn3)n2)cc1,6,8,0.3,2.6%,0.8,8
COc1cccc(Nc2ncnc3ccccc23)c1,-21,-1,-1.0,.,0.0,1
CC(=O)Nc1ccc(OCC(O)CN2CCN(Cc3ccccc3)CC2)cc1 (stereo unspecified),-12,10,0.0,-3.3%[38.3 µM],-0.4,6
Cc1ccccc1CNC(=O)c1cc(COc2ccc(F)cc2F)on1,-13,.,-4.6,0.2%,0.0,20
COc1ccc(-c2nnc(N(C)C(=O)C3CCCO3)s2)cc1 (stereo unspecified),18,-1,-1.2,-3.3%,0.1,6
O=C(COC(=O)c1ccc(O)cc1O)N=c1sccn1Cc1ccccc1Cl,-4,-3,-2.9,0.2%,2.8,-16
O=C(/C=C/c1ccccc1)CC(=O)c1ccccc1,-30,4,-4.1,22%,1.8,0
COCCNC(=O)c1cccc(OC2CCN(Cc3cccc(SC)c3)CC2)c1,-25,-5,0.6,0.4%,-1.4,-9
Nc1nc(NCc2ccccc2)nc(Nc2cccc(F)c2)c1[N+](=O)[O-],-5,-2,-3.3,14%[38.3 µM],2.1,-2
Cc1cnc(NC(=O)C2(c3ccccc3)CC2)s1,-2,3,1.9,-0.2%,0.6,1
O=S(=O)(NCc1csc(-c2cccs2)n1)c1ccc(Cl)cc1,-6,4,-3.7,0.9%,4.9,3
COc1cc(-c2c(C(=O)c3ccccc3)[nH]c(N)c2C(N)=O)ccc1F,.,5,.,-0.5%,-1.1,-13
CCOC(=O)C1(C)CCCN1C(=O)c1ccc(OC)c(F)c1 (stereo unspecified),-4,-7,-2.9,-0.1%,-0.5,13
COc1ccc(Cl)cc1C(=O)Nc1nnn(C)n1,5,-26,-4.1,-5.1%,1.1,-1
Cc1cc(C)n(-c2ccc(C(=O)Nc3ccc(S(=O)(=O)NCc4ccco4)cc3)cc2)n1,8,?,14,-0.4%,2.9,?
CC(=O)c1ccc(-n2nnnc2SCC(=O)NC2CCCCC2)cc1,2,3,-0.8,-0.6%,-0.7,1
COc1cc(OC)cc(C(=O)NNC(=S)Nc2ccccc2OC)c1,-7,1,-6.5,1.5%,-0.1,-5
Cc1ccc(C)c(NC(=S)NC(NC(=O)/C=C/c2ccccc2)C(Cl)(Cl)Cl)c1 (stereo unspecified),26,1,0.8,12%,-0.3,0
COc1cc(C(c2nnnn2C2CCCC2)N2CCN(C)CC2)cc(OC)c1OC (stereo unspecified),-4,-3,-0.8,0.7%,-0.1,19
CCCn1c(N2CCN(C(=O)Nc3ccccc3)CC2)nc2ccccc21,-3,7,9.0,0.5%,-1.7,-1
COc1ccc([N+](=O)[O-])cc1NC(=O)c1ccc(N(Cc2ccccc2C)S(C)(=O)=O)cc1,-7,-1,1.4,8.1%,0.3,4
Cc1ccc([C@@H]2C[C@H]3[C@@H](CN2S(=O)(=O)c2ccc(Cl)cc2)C(=O)C[C@@H](c2ccccc2F)N3S(=O)(=O)c2ccc(C)cc2)cc1,1,3,-8.0,1.1%,0.8,-1
NNC(=O)c1ccc(COc2ccccc2)cc1,-1,.,-2.2,3.1%,-1.0,-3
COc1cc(C(O)c2nc(-c3ccccc3OC)cs2)ccc1F (stereo unspecified),3,11,9.1,5.6%,-0.8,3
CCn1cc(S(=O)(=O)CC(=O)N2CCc3ccccc32)c2ccccc21,-3,-4,-3.3,-0.8%,0.3,0
CCCCNC(=O)CCn1ccc2cc(S(=O)(=O)N3CCCC3)ccc21,-8,.,3.7,1.9%,1.1,4
N#CCN1CCN(CCC(=O)Nc2ccc(OCc3ccccc3)cc2)CC1,-7,-2,0.4,-2.0%,0.0,2
CC(C)Cc1nnc(NC(=O)CSc2nc(=O)cc(N)n2-c2ccccc2)s1,-6,4,-1.8,-0.4%,-0.6,-3
Cc1ccc(CNc2nc(N)c([N+](=O)[O-])c(NCCO)n2)cc1,7,.,3.2,5.2%,3.4,-4
CCCn1c(SCCC(=O)O)nc2ccccc21,-6,-24,-1.1,0.5%,-0.3,-5

Rewritten with each value named: part of the list above.
molecule: O=C(/C=C/c1ccccc1)CC(=O)c1ccccc1
  D2 PAM = -30	CtBP-E1A blk = 4	D2 agonist = -4.1	PINK1 expr mod = 22%	TRPML1 ag = 1.8	Six1-Eya2 blk = 0
molecule: COCCNC(=O)c1cccc(OC2CCN(Cc3cccc(SC)c3)CC2)c1
  D2 PAM = -25	CtBP-E1A blk = -5	D2 agonist = 0.6	PINK1 expr mod = 0.4%	TRPML1 ag = -1.4	Six1-Eya2 blk = -9

Sorted by heavy-atom count (descending): three of the compounds above.
molecule,D2 PAM,CtBP-E1A blk,D2 agonist,PINK1 expr mod,TRPML1 ag,Six1-Eya2 blk
Cc1ccc([C@@H]2C[C@H]3[C@@H](CN2S(=O)(=O)c2ccc(Cl)cc2)C(=O)C[C@@H](c2ccccc2F)N3S(=O)(=O)c2ccc(C)cc2)cc1,1,3,-8.0,1.1%,0.8,-1
Nc1nc(NCc2ccccc2)nc(Nc2cccc(F)c2)c1[N+](=O)[O-],-5,-2,-3.3,14%[38.3 µM],2.1,-2
COc1cc(OC)cc(C(=O)NNC(=S)Nc2ccccc2OC)c1,-7,1,-6.5,1.5%,-0.1,-5

The list continues.
molecule,D2 PAM,CtBP-E1A blk,D2 agonist,PINK1 expr mod,TRPML1 ag,Six1-Eya2 blk
Cc1nc2sc(C(c3ccco3)N3CCC(C)CC3)c(O)n2n1 (stereo unspecified),2,2,-2.6,-0.6%,0.1,-2
O=C(NC1CCCC1)C(c1cccs1)N(C(=O)c1ccco1)c1ccc2c(c1)OCO2 (stereo unspecified),-22,-8,-5.6,-0.2%,-0.8,-26
O=C(COC(=O)/C=C/c1ccccc1)NC1CC1,-6,-3,-5.7,-0.1%,-0.1,8
COc1ccc(C(=O)NCCCN2CCOCC2)cc1,-2,.,-0.3,3.0%,-0.8,-1
Cc1c(C(=O)NCCCN2CCCC2=O)oc2ccc(S(=O)(=O)N3CCOCC3)cc12,-6,-4,-1.6,-0.3%,-0.4,-1
O=C1NN=C(c2ccc(Br)cc2)CC1c1ccc(Cl)cc1 (stereo unspecified),4,-22,0.8,-2.6%,6.0,-5
Cc1ccc(CNc2ncccc2-c2nc3cc(Cl)ccc3o2)cc1,0,11,-1.6,-2.5%,-0.3,2
C=CCOc1ccc(/C=C/C(=O)OCC(=O)N(C)CC(=O)Nc2ccc(F)cc2)cc1,-6,10,-1.1,13%,0.8,-1
Cc1cc(C)nc(NC(=O)c2ccc(Cl)c([N+](=O)[O-])c2)n1,-5,3,-4.2,1.2%,0.3,6
O=C(N=C1SC2CS(=O)(=O)CC2N1c1ccc(F)c(Cl)c1)C1CC1 (stereo unspecified),-8,.,-2.7,-1.7%,1.3,1
O=C(/C=C/c1ccccc1)N1CCN(CC(O)COc2ccccc2)CC1 (stereo unspecified),-19,2,-1.2,0.2%,1.5,-2
COc1ccccc1NC(=O)CS(=O)(=O)c1cn(CC(=O)N(C(C)C)C(C)C)c2ccccc12,4,-5,1.1,0.6%,-0.8,-2

Screening results (PubChem)
